KCNQ2 inh – KCNQ2 channel blockers in CHO-K1 cells – cell-based, FluxOR thallium flux, B-score, primary screen (AID 2156) | O88943 | 20 min; hits give low values; only compounds with negative scores are shown here; some inactives read as strong as hits | B-score at 10 µM | 310,000 tested, 1.1% active;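 active means fluorescence ratio B-score at most minus 3 library SDs, with starting brightness B-score within 2 library SDs, cut at about -5.5 in these data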
Target sequence (O88943 whole entry, looked up): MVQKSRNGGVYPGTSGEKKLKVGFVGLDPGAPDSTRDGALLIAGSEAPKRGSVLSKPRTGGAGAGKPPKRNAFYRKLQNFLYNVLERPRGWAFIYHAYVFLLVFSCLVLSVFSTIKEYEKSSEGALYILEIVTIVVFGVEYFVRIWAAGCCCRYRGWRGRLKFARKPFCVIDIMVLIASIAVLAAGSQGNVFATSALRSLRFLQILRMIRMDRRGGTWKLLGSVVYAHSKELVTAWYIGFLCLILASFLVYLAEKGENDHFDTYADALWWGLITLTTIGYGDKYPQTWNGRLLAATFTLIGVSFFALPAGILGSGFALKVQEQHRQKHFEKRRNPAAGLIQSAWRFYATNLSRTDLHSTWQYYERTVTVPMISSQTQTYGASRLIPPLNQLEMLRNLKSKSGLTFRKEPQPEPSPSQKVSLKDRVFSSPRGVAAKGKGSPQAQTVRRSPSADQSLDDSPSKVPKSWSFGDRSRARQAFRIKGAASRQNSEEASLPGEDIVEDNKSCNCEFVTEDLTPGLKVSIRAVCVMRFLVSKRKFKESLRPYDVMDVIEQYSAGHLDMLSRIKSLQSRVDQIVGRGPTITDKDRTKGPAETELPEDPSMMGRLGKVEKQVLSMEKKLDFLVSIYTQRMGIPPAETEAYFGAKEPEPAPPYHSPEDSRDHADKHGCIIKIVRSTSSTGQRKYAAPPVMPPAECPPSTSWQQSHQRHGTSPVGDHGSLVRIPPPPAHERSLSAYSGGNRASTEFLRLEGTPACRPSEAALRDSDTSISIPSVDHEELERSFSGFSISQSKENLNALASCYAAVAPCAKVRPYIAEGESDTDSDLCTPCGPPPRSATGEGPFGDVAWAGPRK
KCNQ2 inh baseline – further read-out of KCNQ2 inh, marked with its call; B-score; measured here: initial fluorescence intensity artifact check;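 brightness before thallium and not channel activity; 0 = typical well and far values either way flag optical interference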
An asterisk follows results filed as active; i = inactive. A portion of the library (hit frequency here may not be typical).

The opening 3 records as a preview:
#	structure	KCNQ2 inh	KCNQ2 inh baseline
1	C=CCn1cc(/C=C/c2cc[n+](C)cc2)c2ccccc21	i	46
2	O=C(CSCc1ccccc1)NC1CCSC1=O (stereo not given)	i	0.62
3	CC(=O)NC(Cc1cccc(F)c1)C(=O)NC1CCN(C(=O)c2ccc(C)cc2)CC1 (stereo not given)	i	-0.8

Main list, repeating the preview:
#	structure	KCNQ2 inh	KCNQ2 inh baseline
1	C=CCn1cc(/C=C/c2cc[n+](C)cc2)c2ccccc21	i	46
2	O=C(CSCc1ccccc1)NC1CCSC1=O (stereo not given)	i	0.62
3	CC(=O)NC(Cc1cccc(F)c1)C(=O)NC1CCN(C(=O)c2ccc(C)cc2)CC1 (stereo not given)	i	-0.8
4	Cc1cc(C)n(CCC(=O)N2CCc3ccccc32)n1	i	-1.2
5	CC(C)CN(C(=O)CSc1nnnn1C)C1CCS(=O)(=O)C1 (stereo not given)	i	2.7
6	CN(CCOc1ccc(Br)cc1)CC(O)c1ccccc1 (stereo not given)	i	-0.84
7	CCCn1c(N)c(C(=O)CSc2ncc(C(F)(F)F)cc2Cl)c(=O)[nH]c1=O	i	-0.82
8	C/C(=N/NS(=O)(=O)c1ccc(F)cc1)c1ccc(NC(=O)c2ccc(C)o2)cc1	i	0.13
9	O=C1C2C(C(=O)N1/N=C/c1ccc([N+](=O)[O-])o1)C1C=CC2C12CC2 (stereo not given)	i	1.2
10	O=C(CCNS(=O)(=O)c1ccccc1)OCC(=O)c1ccc[nH]1	i	-1
11	O=C1CCCc2c1nc(-c1ccccc1F)n2O	i	0.03
12	COc1ccc(C(=O)NNC(=O)C2CCCN(C3CC(=O)N(c4ccccc4)C3=O)C2)cc1 (stereo not given)	i	-0.43
13	CN(CCCNC(=O)c1ccccc1F)CCCNC(=O)c1ccccc1F	i	1.6
14	COc1ccc(OCCNc2cc(N3CCOCC3)ccc2[N+](=O)[O-])cc1	i	-0.37
15	CCN(CC)c1ccc(/C=N/NC(=O)c2ccco2)cc1	i	3
16	COc1ccc(C(=O)c2ccccc2)cc1Br	i	-0.33
17	Cc1cccc(C)c1OCC(=O)NC(Cc1c[nH]c2ccccc12)C(=O)O (stereo not given)	i	0.3
18	Cc1nnc(NC(=O)CCSCCC(=O)Nc2nnc(C)s2)s1	i	0.82
19	CCOC(=O)CN=C/C(C(C)=O)=C(/C)O	i	4
20	CCCn1c2c(c(O)c(C(=O)NC)c1=O)CCCC2	i	-0.2
21	O=C(NCc1ccco1)c1ccc2snnc2c1	i	0.46
22	CCSc1nc2ccccc2n1C(=O)Oc1ccccc1	i	1.9
23	CCN(CC)c1ccc(/C=N/NC(=O)CC(C)C)cc1	i	0.52
24	Cc1onc(-c2ccccc2)c1CNC(=O)C1COc2ccccc2O1 (stereo not given)	i	-2
25	CC(C)S(=O)(=O)C1=NSC2=NC(=O)/C(=C\c3ccc(OC(=O)c4ccco4)cc3)C(=N)N21	i	-2.5
26	COc1ccccc1C(=O)C1CCCN(C(=O)c2cn3cc(Cl)ccc3n2)C1 (stereo not given)	i	0.03
27	CCOC(=O)c1ccc(S(=O)(=O)N2CCN(CC(=O)NC(=O)NC3CCCCC3)CC2)cc1	-5.6*	0.28*
28	O=C(Nc1cc(S(=O)(=O)N2CCOCC2)ccc1Cl)C(=O)c1c(-c2ccccc2)cc2ccccn12	i	-1.7
29	CCn1c(SCC(=O)Nc2ccc(C)cc2)nnc1-c1cnccn1	i	-0.1
30	CCC1CCCCN1C(=O)CCS(=O)(=O)c1ccccc1 (stereo not given)	i	1.1
31	CC(C)NC[C@@H](O)COc1ccc(CC(N)=O)cc1	i	-0.69
32	CC(=O)N1CC(C)Oc2ccc(S(=O)(=O)NC(CC(=O)O)c3cc(C)ccc3C)cc21 (stereo not given)	i	0.06

A second format for two compounds above.
25) CC(C)S(=O)(=O)C1=NSC2=NC(=O)/C(=C\c3ccc(OC(=O)c4ccco4)cc3)C(=N)N21
30) CCC1CCCCN1C(=O)CCS(=O)(=O)c1ccccc1 (stereo not given)

Assay by compound	25	30
KCNQ2 inh	i	i
KCNQ2 inh baseline	-2.5	1.1

Of the compounds above, four contain two or more sulfur atoms:
#	structure	KCNQ2 inh	KCNQ2 inh baseline
2	O=C(CSCc1ccccc1)NC1CCSC1=O (stereo not given)	i	0.62
5	CC(C)CN(C(=O)CSc1nnnn1C)C1CCS(=O)(=O)C1 (stereo not given)	i	2.7
18	Cc1nnc(NC(=O)CCSCCC(=O)Nc2nnc(C)s2)s1	i	0.82
25	CC(C)S(=O)(=O)C1=NSC2=NC(=O)/C(=C\c3ccc(OC(=O)c4ccco4)cc3)C(=N)N21	i	-2.5

(more compounds)
#	structure	KCNQ2 inh	KCNQ2 inh baseline
33	Cc1ccc2c(CN(C)Cc3cccc(Cl)c3)cc(=O)oc2c1C	i	0.1
34	Oc1[nH]c2ccccc2c1N=Nc1ccccc1F	i	-0.71
35	O=C(CN1CCN(C(=O)C2CCCO2)CC1)Nc1ccc(F)cc1 (stereo not given)	i	0.83
36	c1ccc(N2CCCCC2)c(Nc2nc3ccccc3n3cnnc23)c1	i	0.43
37	CC(c1ccc(F)cc1)n1c(-c2cccs2)n[nH]c1=S (stereo not given)	i	-0.76
38	CCc1ccc(OCC(=O)N/N=C/c2cc([N+](=O)[O-])ccc2N2CCOCC2)cc1	i	-0.07
39	O=C(CN1CCN(S(=O)(=O)/C=C/c2ccccc2)CC1)Nc1ccc(N2CCOCC2)cc1	i	0.1
40	CC(C)(CCC(=S)N1CCOCC1)C1CCCCC1	i	1.3
41	O=S(=O)(c1ccc(F)c(F)c1F)N1CCN(C(=S)NCc2ccccc2)CC1	i	-0.04
42	CCCCc1n[nH]c(=S)n1Cc1ccc(Cl)cc1	i	0.27
43	COc1ccccc1-n1c(=O)c(C#N)c(-c2ccc([N+](=O)[O-])cc2)c2cc(C(=O)c3cc(F)ccc3O)cnc21	i	0.14
44	COc1cc2c(cc1OC)C(NC(=O)C(F)(F)F)CNC2=O (stereo not given)	i	-1.3
45	Cc1c(C(=O)N(C)C2CCCCC2)sc2ncnc(N3CCN(c4ccccc4F)CC3)c12	i	2.3
46	Cc1ccc(NC(=O)N2CCC(NC(=O)c3cccc(F)c3)CC2)cc1	i	0.5
47	CC(C)(C)OC(=O)NCCc1nnc(SCc2c(Cl)cccc2Cl)o1	i	-0.19
48	Nc1cc([N+](=O)[O-])ccc1O	i	-0.35
49	CC(NC(=O)CN1CCc2ccccc21)c1ccccc1 (stereo not given)	i	0.76
50	COc1ccc([C@H]2/C=C\CN(C(=O)C3CCCC3)[C@@H](C)C(=O)N2Cc2ccc(F)cc2)cc1	i	-0.26
51	O=C(NCCc1cscn1)C1CCC(=O)N(Cc2ccc(Cl)cc2)C1 (stereo not given)	i	-0.51
52	CC(=O)Nc1nnc(S(N)(=O)=O)s1	i	-1.1
53	O=C(CSc1nn(-c2ccc(F)cc2)c(=S)s1)NCC1CCCO1 (stereo not given)	i	0.13
54	O=S(=O)(Nc1ccc(Cl)cc1)c1cccc2cccnc12	i	0.13
55	O=C(Nc1cccc(F)c1)Nc1ccc(Cl)cn1	i	0.02
56	O=C(Nc1ccc(Cl)cc1)[C@@H]1[C@@H]2C(=O)N(c3ccc4ccccc4c3)C(=O)[C@@H]2[C@H]2C=CC=NN21	i	0.34
57	O=C(CN1CCCN(Cc2ccc(F)cc2Cl)C1=O)NC1CCCCCCC1	i	-0.58
58	CCCOc1cccc(C2/C(=C(/O)c3ccccc3)C(=O)C(=O)N2CCN(C)C)c1 (stereo not given)	i	-0.24
59	CN(C)c1ccc(CNCCC(Cc2ccccc2)c2ccco2)cc1 (stereo not given)	i	1
60	Cc1cc(C(=O)NNC(=S)Nc2ccccc2C)cs1	i	-1.1
61	COc1ccc(N(CC(=O)NC2CCCCC2)C(=O)CNC(=O)c2ccco2)cc1OC	i	0.15
62	COc1ccc(C(c2nnnn2C(C)(C)C)N2CCN(c3nc4ccccc4s3)CC2)cc1OC (stereo not given)	i	0.07
63	Cc1cccc(-n2c(C)cc(C=C(C#N)C#N)c2C)c1	i	-0.9
64	O=C1N(CCCN2C(=O)C3(OCCO3)c3ccccc32)c2ccccc2C12OCCO2	i	0.41
65	Cc1cc2nc(CCN(C(=S)NCC3CCCO3)C3CCCC3)[nH]c2cc1C (stereo not given)	i	-2.3
66	COc1ccc(Oc2cccc(Cl)c2CNC(=O)CC(C)(C)CC(=O)O)cc1	i	0.79
67	Cc1ccc(C(=O)CSc2nnc3c4ccccc4nc(C(C)(C)C)n23)cc1	i	1.4
68	CCSc1nnc(NC(=O)C2C3CCC(C3)C2C(=O)O)s1 (stereo not given)	i	0.55
69	COc1ccc(Nc2ncnc3ccc(Br)cc23)cc1OC	i	-1.4
70	COC(=O)C(C)N(c1ccc(C)cc1)S(=O)(=O)c1c(C)[nH]c(=O)[nH]c1=O (stereo not given)	i	-0.46
71	CC(=O)C1=C(C)N(Cc2ccccc2)C(=O)N[C@H]1c1ccco1	i	0.83
72	Cn1cc(-c2ccc(Cl)cc2)cc(C#N)c1=O	i	-0.47
73	Cc1cccc(N2CCN(C(=O)c3cccc(NC4=NC5CS(=O)(=O)CC5S4)c3)CC2)c1C (stereo not given)	i	-0.27
74	Cc1ccccc1NC(=O)Cc1nc(COC(=O)c2ccccn2)cs1	i	0.2
75	COc1ccccc1NC(=O)C1=C(C)Nc2nnnn2C1c1ccncc1 (stereo not given)	i	0.03
76	O=C(N/N=C/c1cc(Br)cs1)C(O)c1ccccc1 (stereo not given)	i	-0.87
77	O=[N+]([O-])c1ccc(/C=N/Nc2ncc(-c3ccccc3)cn2)cc1	i	-0.01
78	Cc1cccn2c(=O)c3cc(C(=O)NC4CCCC4)c(=N)n(CCc4ccccc4)c3nc12	i	-0.73
79	CCN(CCCNS(=O)(=O)c1ccc2c(c1)CCN2C(C)=O)c1cccc(C)c1	i	0.17
80	CCCC(=O)n1nc(-c2ccc(Cl)cc2)nc1SC	i	-0.81
81	Oc1ccccc1CN1CCCC(N2CCc3ccccc3C2)C1 (stereo not given)	i	-1.3
82	CC(=NC(C)C)C1=C(O)C(C)OC1=O (stereo not given)	i	-0.09
83	COc1ccc(N(C)S(=O)(=O)c2ccc3c(c2)CC(C)N3C(=O)C2CC2)c(OC)c1 (stereo not given)	i	0.55
84	COC(=O)Nc1ccc(S(=O)(=O)N2CCCCC2C(=O)NCc2ccco2)cc1 (stereo not given)	i	-0.07
85	CCC(=O)OCCNc1cc(Sc2nc3ccccc3s2)c2nonc2c1[N+](=O)[O-]	-7.5*	-3.1*
86	CCCCC1CCC(C(=O)NC2CCS(=O)(=O)C2)CC1 (stereo not given)	i	3.5
87	Cc1cc2c(=O)n(Cc3ccco3)c(SCC(=O)N3CCCc4ccccc43)nc2s1	i	1.9
88	CCC(C(=O)NCc1cccc(C)c1)n1nc(C)c2c(C)n(-c3ccccc3)nc2c1=O (stereo not given)	i	-0.03

The list goes on:
#	structure	KCNQ2 inh	KCNQ2 inh baseline
89	Cc1ccc(-c2ccc(C(=O)NCc3ccccc3)o2)c2ccccc12	i	0.89
90	COc1cccc(C2CC(c3cccc(NS(C)(=O)=O)c3)=NN2C(=O)c2ccccc2)c1OC (stereo not given)	i	1.7
91	CC(C)CCN1CCN(Cc2nc3c(s2)CCCC3)CC1CCO (stereo not given)	i	0.44
92	CN1/C(=C\C(=O)C[n+]2cccc(C(N)=O)c2)C(C)(C)c2ccccc21	i	0.93
93	CCOC(=O)N1CCN(C(=O)CSc2nnc(CNC(=O)c3ccccc3F)o2)CC1	i	1.6
94	CCOC(=O)C1=C(CN2CCc3ccccc32)NC(=O)NC1c1ccc(Cl)cc1 (stereo not given)	i	-0.72
95	C=CCNC(=O)NC(=O)Cn1c(=O)c2c(ncn2CC)n(Cc2ccccc2)c1=O	i	-1.7
96	COc1ccc(OC)c(NC(=O)NC2CCCc3ccccc32)c1 (stereo not given)	i	0.37
97	CCCc1[nH]n(-c2ccc(F)cc2)c(=O)c1C=NCC1CCCO1 (stereo not given)	i	0.41
98	COC(=O)c1ccccc1NC(=O)CSc1ccc(C)cc1	i	-0.28
99	COC(=O)CN(c1cc([N+](=O)[O-])ccc1OC)S(C)(=O)=O	i	-0.3
100	S=c1[nH]nc(COc2cccc3ccccc23)n1Cc1ccccc1	i	-1.6
101	CSc1ccc(/C=C(\NC(=O)c2ccccc2)C(=O)NN)cc1	i	-0.14
102	CCc1nnc(NC(=O)CN2CCN(c3ccccc3OC)CC2)s1	i	-0.4
103	Cc1cc(C)n2nc(SCC(=O)c3cccs3)nc2n1	i	3
104	Cc1ccc2cc(C)c(SCC(=O)Nc3ccc(S(=O)(=O)N4CCCC4)cc3)nc2c1	i	0.33
105	O=C(NC1CCN(S(=O)(=O)c2ccccc2)CC1)C1CCCCC1	i	0.75
106	CC(C)(C)CC(=O)Nc1cc(S(=O)(=O)N2CCCCCC2)ccc1Cl	i	0.83
107	C#CC1(NC(=O)NC(=O)c2c(F)cccc2F)CCCCC1	i	-0.06
108	O=[N+]([O-])c1cc([N+](=O)[O-])c(Oc2cncc(Cl)c2)cc1NC1CCCCCCC1	i	-2.1
109	CC(C)OC(=O)CC(=O)CSc1nc2c(cc1C#N)CCC2	i	-0.11
110	Brc1ccc(-c2nnc(Cc3ccccc3)o2)cc1	i	-2.6
111	Cc1ccc(NC(=O)c2sccc2-n2cccc2)c(C)c1	i	1.1
112	COc1ccc2c(CC(=O)N(C)CC3COc4ccccc4O3)coc2c1 (stereo not given)	i	-0.12
113	C=CCc1cccc(CNc2nc3ccccc3n2CCN2CCOCC2)c1O	i	-0.23
114	Cc1ccc([N+](=O)[O-])cc1N/C=C1\CCc2ccccc2C1=O	i	0.09
115	Cc1c(C(=O)N2CCCC2)sc(NC(=O)c2ccccc2)c1C#N	i	0.54
116	Cc1cc(/C=N/NC(=O)Cn2c3ccccc3c(=O)c3ccccc32)c(C)n1-c1ccccc1	i	1
117	CCSC1=NCCN1C(=O)c1ccc(S(=O)(=O)N(CC)CC)cc1	i	0.15
